CDK5 p35 inh – inhibitors of human CDK5/p35 kinase, primary screen, biochemical, single concentration; AID 488839, 2010; Cyclin-dependent kinase 5 (Homo sapiens) + Cyclin-dependent kinase 5 activator 1 (Homo …; inhibition, % at 10 µM; 0.01% of 330,000 active; Recombinant CDK5/p35, ADP-Glo luminescence, 60 min;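 active = highest replicate inhibition of at least 50% and at least 75% of replicates reaching 50%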;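 also: plate controls were DMSO neutral control for no effect and GW8510 at 10 µM for full effect; many of its hits are not listed in these tables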
DAGLB inhibitor – DAGLB lipase inhibitors, primary screen, biochemical, fluorescence, HTS; HEK293T DAGLB membrane lysate, EnzChek fluorogenic substrate; inhibition, % at 5.17 µM; 0.059% of 340,000 active; AID 504411, 2011; in the data active = inhibition above about 34%;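 also: 0% = enzyme with vehicle and 100% = wells lacking enzyme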
HTR5A inv ag – HTR5A inverse agonists in luminescence cell assay, primary screen, counter-screen for OPRM1-OPRD1 heterodimer inverse agonist project, full-deck HTS; HTR5A cell line, inverse agonism; inhibition, % at 9.3 µM; 0.083% of 340,000 active; in the data active = inhibition mostly above about 23%, no sharp cut-off; inactive = mostly below about 18%;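 also: 0% = cells with DMSO and 100% = no-cell wells with DMSO; some compounds called inactive have numbers as strong as hits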
Target sequence (P47898 whole entry, looked up): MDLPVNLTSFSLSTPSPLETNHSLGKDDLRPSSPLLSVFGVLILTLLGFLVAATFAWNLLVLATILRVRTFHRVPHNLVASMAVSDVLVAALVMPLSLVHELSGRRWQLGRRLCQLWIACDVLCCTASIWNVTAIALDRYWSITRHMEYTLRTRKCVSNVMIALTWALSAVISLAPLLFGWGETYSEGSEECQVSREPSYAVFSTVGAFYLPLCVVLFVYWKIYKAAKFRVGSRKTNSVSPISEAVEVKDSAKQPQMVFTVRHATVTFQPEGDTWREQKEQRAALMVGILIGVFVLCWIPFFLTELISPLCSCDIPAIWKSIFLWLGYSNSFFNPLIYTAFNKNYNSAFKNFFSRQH
PKA-R2B activ – activators of PKA-R2B holoenzyme, primary screen, biochemical, fluorescence polarization, Cy5-IP20, human; cAMP-dependent protein kinase catalytic subunit beta (Homo sapiens) + cAMP-dependent …; PKA-R2B holoenzyme dissociation; R2B truncated from residue 108, S112A mutant; 0% DMSO only, 100% 113 µM cGMP; activation, % at 11.4 µM; 0.079% of 340,000 active; AID 504700, 2011;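 active = activation above a cutoff set at the mean over all compounds plus 3 SD, cut at about 18% in these data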;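 also: higher means more holoenzyme dissociation and a rise in polarization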
Mot1-301 SUMO – yeast Mot1-301 growth rescue at high temperature, primary screen, SUMOylation pathway inhibitor project, S. cerevisiae, ATP luminescence, 38.5C; S. cerevisiae Mot1-301 growth rescue; percent above DMSO median, 100 means doubled; 1% of 320,000 active; growth rescue, % at 18.8 µM;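 active = every valid replicate shows activation above 250% relative to neutral control wells; inactive = the rest, any valid replicate at or below 250%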;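 also: OY570 slx delta 5 strain wells were the positive control but not used for scaling; some compounds called inactive have numbers as strong as hits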
PKA-R1A act – activators of PKA-R1A holoenzyme, primary screen, biochemical, fluorescence polarization, Cy5-IP20, bovine R1A, mouse PKAc; activation, % at 11.4 µM; AID 504707, 2011; cAMP-dependent protein kinase type I-alpha regulatory subunit (Bos taurus) + …; 0.083% of 340,000 active; PKA-R1A dissociation; scaled: DMSO 0%, 113 µM cGMP 100%;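 active = percent activation above the mean of all tested compounds plus 3 SD, cut at about 19% in these data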;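 also: higher means more PKAc released from R1A so a rise in polarization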
HTR5A ag – HTR5A agonists in luminescence cell assay, primary screen, counter-screen for OPRM1-OPRD1 heterodimer agonist project, full-deck HTS | cell-based | activation, % at 9.3 µM | 0.61% of 340,000 active; in the data active = activation mostly above about 9.5%, no sharp cut-off; inactive = mostly below about 7.6%;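 also: 0% = cells with vehicle only and 100% = reference agonist; strong numbers were not always called active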
Tat export inh – E. coli Tat export inhibitors, primary screen, MC4100, TorA-mCherry reporter, fluorescence, single point | inhibition, % at 10 µM | 0.036% of 340,000 active;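 active = mean replicate inhibition at least 50% and at least half of replicates individually reaching 50%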;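 also: exported cargo escapes ClpAP degradation while cytoplasmic cargo is degraded and loses fluorescence; 0% = median of neutral control wells and 100% = median of NaSCN control wells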
An asterisk follows results filed as active.

| nr | Molecule | CDK5 p35 inh | DAGLB inhibitor | HTR5A inv ag | PKA-R2B activ | Mot1-301 SUMO | PKA-R1A act | HTR5A ag | Tat export inh |
| --- | --- | --- | --- | --- | --- | --- | --- | --- | --- |
| 1 | CCn1c(CNc2ccc(OC)cc2)nnc1SCC(=O)N1CCCc2ccccc21 | 1.5 | 2 | -18 | -9 | -22 | -4 | 5 | 0 |
| 2 | COc1cccc(-n2c([S-])c(C(=O)Nc3ccc(S(=O)(=O)N4CCOCC4)cc3)[n+]3cc(C(N)=O)ccc23)c1 | -13 | -2 | -7 | 4 | -7 | -9 | 2 | 1 |
| 3 | CCOc1cc(/C=N/NC(=O)c2cccc(S(=O)(=O)N3CCCC3)c2)ccc1OCC(=O)N(C)C | 1.8 | 0 | 6 | -13 | 63 | 1 | -2 | -2 |
| 4 | COc1cccc(C(=O)NN/C(C)=C/C(=O)C(F)(F)C(F)(F)C(F)(F)F)c1 | -1.2 | 4 | 2 | -13 | 9 | -5 | -1 | -22 |
| 5 | O=C(CNC(=O)c1cccc([N+](=O)[O-])c1)OCCCC(=O)c1ccc(F)cc1 | 0.6 | -6 | -12 | -13 | -7 | -12 | 5 | 9 |
| 6 | COc1ccc(C2=NN(C)C(=NCc3ccccc3)SC2)cc1 | 1.4 | -8 | 3 | -2 | 4 | -5 | 2 | -4 |
| 7 | c1csc(-c2ccn[nH]2)c1 | 0.7 | -1 | -27 | 0 | -5 | 10 | 7 | -4 |
| 8 | Cc1ccccc1C(=O)N/N=C/c1ccc(Sc2ccccn2)o1 | -0.1 | -4 | 0 | -9 | -1 | 9 | 0 | -3 |
| 9 | Brc1ccc(CSc2ccc3nnc(-c4cccnc4)n3n2)cc1 | 1.2 | 1 | 9 | -8 | -9 | 9 | 0 | 9 |
| 10 | COc1ccc(C[C@H](C)NC[C@@H](O)c2ccc(O)c(NC=O)c2)cc1 | 0.0 | 0 | -47 | 10 | 12 | 2 | -3 | -5 |

An excerpt from above in order of count of non-hydrogen atoms, rising:
| nr | Molecule | CDK5 p35 inh | DAGLB inhibitor | HTR5A inv ag | PKA-R2B activ | Mot1-301 SUMO | PKA-R1A act | HTR5A ag | Tat export inh |
| --- | --- | --- | --- | --- | --- | --- | --- | --- | --- |
| 7 | c1csc(-c2ccn[nH]2)c1 | 0.7 | -1 | -27 | 0 | -5 | 10 | 7 | -4 |
| 6 | COc1ccc(C2=NN(C)C(=NCc3ccccc3)SC2)cc1 | 1.4 | -8 | 3 | -2 | 4 | -5 | 2 | -4 |
| 8 | Cc1ccccc1C(=O)N/N=C/c1ccc(Sc2ccccn2)o1 | -0.1 | -4 | 0 | -9 | -1 | 9 | 0 | -3 |
| 10 | COc1ccc(C[C@H](C)NC[C@@H](O)c2ccc(O)c(NC=O)c2)cc1 | 0.0 | 0 | -47 | 10 | 12 | 2 | -3 | -5 |
| 5 | O=C(CNC(=O)c1cccc([N+](=O)[O-])c1)OCCCC(=O)c1ccc(F)cc1 | 0.6 | -6 | -12 | -13 | -7 | -12 | 5 | 9 |
| 3 | CCOc1cc(/C=N/NC(=O)c2cccc(S(=O)(=O)N3CCCC3)c2)ccc1OCC(=O)N(C)C | 1.8 | 0 | 6 | -13 | 63 | 1 | -2 | -2 |

Other structures
11	N#C/C(=C/c1cccnc1)c1ccccc1
12	Cc1c(OCC(=O)OC(C)C)ccc2c3c(c(=O)oc12)CCC3
13	O=C(N/C(=C\c1ccc([N+](=O)[O-])cc1)C(=O)N1CCOCC1)c1ccccc1
14	CN(C)S(=O)(=O)c1cc(C(=O)Nc2ccn(C)n2)c(Cl)cc1Cl
screen / no.	11	12	13	14
CDK5 p35 inh	-1.1	1.0	0.2	-0.2
DAGLB inhibitor	-2	-8	-3	-1
HTR5A inv ag	-5	19	1	-3
PKA-R2B activ	-9	-14	-1	-17
Mot1-301 SUMO	119	-7	-16	3
PKA-R1A act	0	-6	-10	-8
HTR5A ag	1	-1	-1	1
Tat export inh	-1	8	3	7

Screening data: PubChem BioAssay, several laboratories

Some of the compounds tested, so the mix of outcomes need not match the whole.
